HSD17B inhib – blocks hydroxysteroid 17-beta dehydrogenase activity | recombinant HSD17B10, NADH fluorescence kinetic; many of its hits are not listed in these tables | Q99714 | Potency, µM (doses to about 57.1 µM), for inactives: at the highest dose activity change, negative = inhibition, actives largely listed as inhibitors | AID 893 | 75,000 tested, 7.6% active; active = well fitted inhibition curve with a large enough effect; inconclusive = small, poorly fitted or top-dose-only effect; inactive = no such curve, though single readings can be large or run the other way;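 also: the protocol describes HADH2 (HSD17B10) and not the HSD17B4 of the title; nearly all actives have a fitted effect of over 70% in size; most hits overshoot -100% by far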
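His-tagged E. coli-expressed HADH2 at 20 nM in 100 mM Tris-HCl pH 9.0 with 0.01 % Tween-20, preincubated 15 min with compound at room temperature. Reaction with 1 mM NAD+ and 90 uM beta-hydroxybutyryl coenzyme A; NADH fluorescence (360/450 nm) read kinetically over 4 min, last minus first point.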
* hit, by the source's call; [ ] = remark or other dose. % is scaled to controls: 0 for no effect and ±100 for the full control effect; potency is read from the fitted curve at half-maximal effect. Only part of the results is shown. The share of hits here may be higher or lower than overall.

`COC(=O)[C@@]1(Cc2ccc(F)cc2)[C@H]2c3cc(C(=O)N4CCCC4)n(Cc4ccc(C)o4)c3C[C@H]2CN1C(=O)c1ccccc1` gave HSD17B inhib -11.5%.
For COc1cc2c(C(=O)NCc3ccccn3)cn(CC(C)C)c(=O)c2cc1OC the results were HSD17B inhib -16.7%.
For Cc1cc(OCC(=O)N(C)C)c2c(-c3ccccc3)cc(=O)oc2c1 the results were HSD17B inhib inconclusive.
Screening CC(=O)C1=C(C)Nc2ncnn2C1c1ccccc1Cl (centres undefined) returned HSD17B inhib 1.1%.
`CC(=O)Nc1cccc(NC(=O)c2ccco2)c1` gave HSD17B inhib 1.8%.
Screening COc1ccc2cc(S(=O)(=O)N3CCOCC3)ccc2c1 returned HSD17B inhib inconclusive.
For CCc1ccc(OCC(=O)Nc2ccc(-c3nc4ccccc4o3)c(O)c2)cc1 the results were HSD17B inhib 25.1µM*.
`CCC(c1nnnn1Cc1ccco1)N(Cc1cc2cc(C)cc(C)c2[nH]c1=O)CC1CCCO1` (centres undefined) gave HSD17B inhib 31.6µM*.
COc1ccc(C2CC(c3ccco3)n3ncnc3N2)cc1 (centres undefined) was read as HSD17B inhib 0.4%.
`COCCCNC(=O)c1cc2c(s1)CS(=O)(=O)C2` gave HSD17B inhib 4.6%.
COc1ccc(C)cc1NC(=O)c1cc2c(C)nc3ccccc3c2o1 was read as HSD17B inhib 1.4%.
O=C(O)C(F)(F)C(F)(F)C(F)(F)C(F)(F)C(=O)O was read as HSD17B inhib 15.7%[11.4 µM].

Of the compounds above, these contain a carbonyl joined to an NH by a bond outside any ring.
For COc1cc2c(C(=O)NCc3ccccn3)cn(CC(C)C)c(=O)c2cc1OC the results were HSD17B inhib -16.7%.
`CC(=O)Nc1cccc(NC(=O)c2ccco2)c1` gave HSD17B inhib 1.8%.
For CCc1ccc(OCC(=O)Nc2ccc(-c3nc4ccccc4o3)c(O)c2)cc1 the results were HSD17B inhib 25.1µM*.
`COCCCNC(=O)c1cc2c(s1)CS(=O)(=O)C2` gave HSD17B inhib 4.6%.
COc1ccc(C)cc1NC(=O)c1cc2c(C)nc3ccccc3c2o1 was read as HSD17B inhib 1.4%.

Later entries:
Screening COc1ccccc1CN1CCCC2(CCN(C(=O)c3ccco3)CC2)C1 returned HSD17B inhib -7.4%.
For CC1(C)CC(=O)c2c(noc2-c2ccccc2)C1 the results were HSD17B inhib 4.1%.
For CCOc1ccc(NC(C)c2cc(Cl)ccc2O)cc1 (centres undefined) the results were HSD17B inhib -10.6%.
For O=C(c1ccc(=O)[nH]c1)N(Cc1ccco1)C1(C(=O)NC2CCCC2)CCCCC1 the results were HSD17B inhib 12.4%.
CS(=O)(=O)Nc1cccc(-c2cncnc2Nc2ccc(F)cc2)c1 was read as HSD17B inhib inconclusive.
Screening Nc1cc2c(nc3c4ccccc4c(N)cc3[n+]2-c2cccc3ccccc23)c2ccccc12 (tested in a mixture with another compound) returned HSD17B inhib -12.8%[11.4 µM].
Screening COc1cccc(-c2cc(NCc3ccccc3OC)ncn2)c1 returned HSD17B inhib -1.6%.
For COc1ccc(Cn2nnnc2CN(Cc2cc3cccc(C)c3[nH]c2=O)C2CCCC2)cc1 the results were HSD17B inhib -6.2%.
For O=C(Cn1cnc2c(cnn2-c2ccccc2)c1=O)NC1CCCC1 the results were HSD17B inhib -2.2%.
`O=C(CSCc1ccc(Cl)cc1)c1ccco1` gave HSD17B inhib 25.1µM*.
For Cc1onc(-c2ccccc2Cl)c1C(=O)Nc1cc(=O)n(C)c(=O)n1C the results were HSD17B inhib 1.8%.
CCN(C(=O)c1cn(C)c(=O)c2cc(OC)c(OC)cc12)c1ccccc1C was read as HSD17B inhib -21.3%.
CNC(=O)n1ccc(C(=O)N2CCCCC2)n1 was read as HSD17B inhib 2.7%.
`O=C(CCCCn1c(=O)[nH]c2ccsc2c1=O)NCC1CCCO1` (centres undefined) gave HSD17B inhib -8.4%.
Screening Cc1noc(C)c1C(=O)NC(C)C1CCCO1 (centres undefined) returned HSD17B inhib 0.7%.
`C=CCn1c(C(C)NC(=O)CC)nc2ccccc21` (centres undefined) gave HSD17B inhib -4.6%.
For COc1ccc(NC(=O)CN2C(=O)CC(C)(C)S(=O)(=O)c3ccccc32)cc1 the results were HSD17B inhib -1.4%.
`CCOC(=O)c1c(C)[nH]c(C(=O)CN2CC(C)OC(C)C2)c1C` (centres undefined) gave HSD17B inhib 7.0%.
`NNS(=O)(=O)c1cc(C(=O)O)cc(C(=O)O)c1` gave HSD17B inhib -5.8%[11.4 µM].
`N#Cc1c(SCC(=O)Nc2nccs2)nc2c(c1-c1ccco1)CCCC2` gave HSD17B inhib 3.7%.
For CCCCN1C(=O)c2ccc(C(=O)Nc3cccnc3)cc2C1=O the results were HSD17B inhib 7.7%.
O=C(CCN1C(=O)C2C3C=CC(C3)C2C1=O)Nc1c(F)cc(F)cc1Br (centres undefined) was read as HSD17B inhib -0.1%.
For CC(OC(=O)c1cccs1)C(=O)NCc1ccc2c(c1)OCO2 (centres undefined) the results were HSD17B inhib 5.0%.
Screening COCC(=O)Nc1nnc(Cc2ccc(OC)c(OC)c2)s1 returned HSD17B inhib 8.8%.
Screening CCSc1nnc(NC(=O)CSc2nccn2-c2cccc(C)c2C)s1 returned HSD17B inhib -5.3%.
COC(=O)c1sc(NC(=O)C2CCCCC2C(=O)O)c(C(=O)OC)c1C (centres undefined) was read as HSD17B inhib -3.4%.
Screening COc1ccc(OC)c(C(=O)c2ccc(C(=O)O)cc2)c1 returned HSD17B inhib 7.6%.
`CCSc1nc2c(cnn2-c2ccc(C)cc2)c(=O)[nH]1` gave HSD17B inhib 1.2%.
Screening O=C(CCNS(=O)(=O)c1ccc2c(c1)CCC(=O)N2)Nc1ccc2c(c1)OCCO2 returned HSD17B inhib 12.3%.
For Cc1ccc(-n2nnnc2SCC(N)=O)c(C)c1 the results were HSD17B inhib 0.6%.
CCOC(=O)N1CCN(C(=O)c2cccc(OC)c2OC)CC1 was read as HSD17B inhib 10.9%.
`CC1(C)Oc2ccc(C(=O)N3CCCCC3)cc2N(CC(=O)NCc2ccccc2)C1=O` gave HSD17B inhib 9.6%.
`CC(=O)c1cccc(N2C(=NC(=O)C(C)C)SC3CS(=O)(=O)CC32)c1` (centres undefined) gave HSD17B inhib 10.4%.
For O=C(c1cc(-c2cccs2)on1)N1CCN(c2ccc(F)cc2)CC1 the results were HSD17B inhib 5.5%.
Cc1nc(N2CCCC2C(=O)O)c2oc3ccccc3c2n1 (centres undefined) was read as HSD17B inhib 7.5%.
CC(=O)NCc1cn2c(C)csc2n1 was read as HSD17B inhib 5.5%.
For COc1ccc(CNCC(=O)Nc2cc(C)nn2-c2nc(C)cc(C)n2)cc1OC the results were HSD17B inhib 3.2%.
CC(C)=C1C(=O)C(c2ccccc2)=C2CN3C(=O)N(CCc4ccccc4)C(=O)[C@]3(Cc3ccccc3)[C@H]21 was read as HSD17B inhib 6.2%.
Screening CC(=O)Oc1ccccc1C(=O)Oc1ccccc1C(=O)O returned HSD17B inhib 57.8%[activator].
For COCCn1c(-c2cc(OC)c(OC)c(OC)c2)nc2oc3ccccc3c(=O)c2c1=O the results were HSD17B inhib 0.2%.
COc1cccc(Nc2nc(=O)[nH]nc2C)c1 was read as HSD17B inhib 1.0%.
`COc1ccc(N2CCC(CNC(=O)Nc3ccc(OC)cc3OC)C2)cc1` (centres undefined) gave HSD17B inhib -11.5%.
Screening COc1ccc(-c2nnc(SCc3ccccc3F)o2)cc1OC returned HSD17B inhib -8.5%.
COC(=O)c1[nH]c2cccc(OC)c2c1NC(=O)CCN1CCN(c2ccccc2F)CC1 was read as HSD17B inhib 31.6µM*.
`Cc1ccc(OCCCC(=O)Nc2ccc(S(=O)(=O)Nc3cc(C)on3)cc2)cc1` gave HSD17B inhib 31.6µM*.
`CCOC(=O)c1ccc(N2CSC3=C(C#N)C(c4cccs4)CC(=O)N3C2)cc1` (centres undefined) gave HSD17B inhib -8.8%.
`C=CCC1(C)OC=Cc2nc3cc(Cl)c(Cl)cc3nc21` (centres undefined) gave HSD17B inhib -26.6%[11.4 µM].
For CC(C)c1cc(C(=O)Nc2cccc(Cl)c2)no1 the results were HSD17B inhib -6.8%.
Screening CC(=O)c1ccc(S(=O)(=O)N(Cc2cc3cc4c(cc3[nH]c2=O)OCCO4)CC2CCCO2)cc1 (centres undefined) returned HSD17B inhib 4.7%.
For O=C(c1csnn1)N1CCC2(CC1)CCN(c1ncccn1)CC2 the results were HSD17B inhib -7.2%.
`COC(=O)C1=C(C)N(C)C(C)=C(C(=O)OC)C1c1ccncc1` gave HSD17B inhib 11.2%.
CCC(C)(C)NC(=O)C(c1ccc(F)cc1)N(Cc1ccco1)C(=O)CCC(=O)Nc1ccccn1 (centres undefined) was read as HSD17B inhib -12.0%.
`Cn1c(=O)c2c(SCC(=O)N3CCN(c4ccccc4)CC3)nc(C3CC3)nc2n(C)c1=O` gave HSD17B inhib 31.6µM*.
For Cc1c(NC(=O)C2CCCCN2S(=O)(=O)c2ccc(Cl)cc2)c(=O)n(-c2ccccc2)n1C (centres undefined) the results were HSD17B inhib 3.6%.
Screening CCn1c(=O)cc(NC2=NCC(C)CN2c2cccc(Cl)c2)n(C)c1=O (centres undefined) returned HSD17B inhib -1.5%.
Screening CCn1c(COc2ccc(Cl)cc2)nnc1SCc1ccc(C#N)cc1 returned HSD17B inhib -5.7%.
`Cc1oc(/N=C/c2ccccc2O)c(C#N)c1C` gave HSD17B inhib -7.9%.
Screening CCn1c(=O)cc(SCC(=O)N2CCC(C)CC2)c2ccccc21 returned HSD17B inhib -28.4%.
c1cncc(-c2nccc(-n3ccnc3)n2)c1 was read as HSD17B inhib 1.2%.
For O=C(Nc1cccnc1)c1c(O)c2cccc3c2n(c1=O)CC3 the results were HSD17B inhib -2.6%.
For Cc1cccc(OCC(O)Cn2c(-n3nc(C)cc3C)nc3c2c(=O)[nH]c(=O)n3C)c1 (centres undefined) the results were HSD17B inhib -28.9%.
Screening Cc1ccc(N2CCN(S(=O)(=O)c3ccc(F)cc3)CC2)c(C)c1 returned HSD17B inhib 5.2%.
For Cc1ccc(S(=O)(=O)c2c(N)n(/N=C/c3ccco3)c3nc4ccccc4nc23)cc1C the results were HSD17B inhib 25.1µM*.
For Cc1c(C(=O)N2CCN(c3ccccc3)CC2)sc2ncnc(N3CCN(c4ccccc4)CC3)c12 the results were HSD17B inhib 1.1%.
For Cc1ccccc1OCC(=O)NCCN1CCCC1 the results were HSD17B inhib 13.3%.
`C[C@@]1(O)CCOC(=O)C1` gave HSD17B inhib 7.7%[25.6 µM].
Screening CCN(CCNS(=O)(=O)c1ccc2[nH]c(=O)sc2c1)c1ccccc1 returned HSD17B inhib -5.4%.
`O=C(CSc1nc2ccccc2o1)NCCOc1ccccc1` gave HSD17B inhib 1.9%.
Cc1cccc(C)c1NC(=O)c1cc(S(=O)(=O)N2CCOCC2)ccc1F was read as HSD17B inhib 5.4%.
`COC(=O)c1ccc(NC(=O)CCn2c(=O)oc3ccccc32)cc1` gave HSD17B inhib 2.9%.
Cc1c(C#N)c2ncnc(-c3ccccc3)c2n1-c1ccccc1 was read as HSD17B inhib inconclusive.
For COc1ccc(OCCN2CCN(C3CC(=O)N(CCC(C)C)C3=O)CC2)cc1 (centres undefined) the results were HSD17B inhib -8.0%.

2 entries picked at random from the list so far, as already listed:
`COC(=O)c1ccc(NC(=O)CCn2c(=O)oc3ccccc32)cc1` gave HSD17B inhib 2.9%.
Cc1c(C#N)c2ncnc(-c3ccccc3)c2n1-c1ccccc1 was read as HSD17B inhib inconclusive.

Further records follow:
For COc1cccc(NC(=O)N2CCCC(C(=O)Nc3ccccc3OC)C2)c1 (centres undefined) the results were HSD17B inhib 8.0%.
For O=C(OCC1COc2ccccc2O1)c1ccccc1F (centres undefined) the results were HSD17B inhib -2.5%.
CCOC(=O)CSc1ccc2nnc(-c3ccccc3)n2n1 was read as HSD17B inhib 31.6µM*.
`CCOC(=O)C(NC(=O)c1ccc(F)cc1)(Nc1nnc(C)s1)C(F)(F)F` (centres undefined) gave HSD17B inhib -0.9%.
Screening Cc1ccc(C(C)C)c(OCC(=O)Nc2ccc(N3CCN(S(C)(=O)=O)CC3)cc2)c1 returned HSD17B inhib 3.8%.
CCC(=O)Nc1ccc(Br)c(Cl)c1 was read as HSD17B inhib 10.3%.
For O=C(Nc1ccc2c(c1)OCCO2)C1CCCN1S(=O)(=O)c1ccc(Cl)cc1 (centres undefined) the results were HSD17B inhib -6.1%.
For NC(=O)CSc1nnc(-c2ccncc2)n1CCc1ccccc1 the results were HSD17B inhib 6.7%.
Screening c1ccc(-c2nnc3sc(-c4cc5ccccc5o4)nn23)cc1 returned HSD17B inhib inconclusive.
For O=C(NCc1ccccn1)C1CCN(S(=O)(=O)c2cnc[nH]2)CC1 the results were HSD17B inhib 0.2%.
Screening COC(=O)C1=C(N)Oc2cc(C)n(CCCn3ccnc3)c(=O)c2C1c1cccc(Cl)c1 (centres undefined) returned HSD17B inhib -1.7%.
For COc1cc2cc(CN(CCN3CCCC3)C(=O)Nc3ccc(F)cc3)c(=O)[nH]c2cc1OC the results were HSD17B inhib 31.6µM*.
`CC(=O)c1c(C)[nH]c(C(=O)OCC(=O)Nc2ncc(Cl)c(C)c2Cl)c1C` gave HSD17B inhib -21.3%.
Cc1ccc(Cn2nnc3c(=O)n(CC(=O)N4CCN(c5ccccc5)CC4)cnc32)cc1 was read as HSD17B inhib inconclusive.
Screening CN1CCN(c2cc(-c3ccc(N(C)C)cc3)ncn2)CC1 returned HSD17B inhib 15.8µM*.
`O=C(OCC(=O)c1cccs1)C1=COCCO1` gave HSD17B inhib 8.7%.

Bioassay records from PubChem.
